# Compound activity deposited in PubChem BioAssay by National Center for Advancing Translational Sciences (NCATS).
# D2 ag: activates the human D2 dopamine receptor | DiscoveRx PathHunter D2 beta-arrestin, luminescence, 90 min; 100% = 57 uM dopamine signal | P14416 | AID 624465 | 360,000 tested, 0.084% active | activation, % (no concentration beside the values); in the data active = activation above about 40%; inconclusive = about 15% to 40%; inactive = below about 15%; also: compound concentration not given in the record; the text of the record calls up to 30% inactive
# Target sequence (P14416 whole entry, looked up): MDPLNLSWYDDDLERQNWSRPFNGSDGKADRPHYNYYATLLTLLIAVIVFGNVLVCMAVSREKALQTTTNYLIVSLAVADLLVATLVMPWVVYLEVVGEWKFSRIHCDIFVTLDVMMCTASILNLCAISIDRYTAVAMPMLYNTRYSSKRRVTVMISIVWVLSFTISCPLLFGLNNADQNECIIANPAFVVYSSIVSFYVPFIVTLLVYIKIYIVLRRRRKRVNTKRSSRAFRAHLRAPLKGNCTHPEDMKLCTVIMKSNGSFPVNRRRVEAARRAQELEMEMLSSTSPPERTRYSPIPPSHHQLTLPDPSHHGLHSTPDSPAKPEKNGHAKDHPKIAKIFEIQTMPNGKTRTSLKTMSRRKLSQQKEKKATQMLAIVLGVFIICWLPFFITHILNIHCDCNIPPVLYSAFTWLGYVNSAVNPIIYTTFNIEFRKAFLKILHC
#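 Agonist mode: compounds alone added to overnight-plated D2 PathHunter cells for 90 min at 37 C, with 57 uM final dopamine (EC100) defining full response. Beta-arrestin recruitment detected by chemiluminescent reagent, read after 1 h at ambient temperature.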
# Six1-Eya2 blk: blocks human Six1 binding to Eya2 | 360,000 tested, 0.56% active | AlphaScreen GST-Six1/His-Eya2 binding, biochemical; active compounds read low; control for the full effect not named in the record | Q15475+O00167 | activity change, % (concentration not given with the values) | AID 651725; in the data active = activity change below about -65%; inconclusive = about -30% to -65%; inactive = above about -30%; also: % is scaled to controls: 0 for no effect and ±100 for the full control effect
#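 GST-Six1 + His-Eya2 (5X stock: 250/500 nM); Tris pH 8.0, 300 mM NaCl, 0.05% BSA, 0.02% Tween 20; GSH donor/Ni acceptor beads; 1 h 37 °C dark; AlphaScreen readout.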
# TRPML1 blocker: inhibitors of human TRPML1 channel | Q9GZU1 | 390,000 tested, 0.02% active | activity change, negative = inhibition, % (test concentration not listed) | TRPML1-inducible cells, Ca2+ dye fluorescence, FDSS; active compounds read low; inhibition of EC80 agonist-evoked calcium signal; in the data active means activity change below about -50%; inconclusive means about -30% to -50%; inactive means above about -30%;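 also: stimulus is agonist 54-4 at its EC80 concentration; % is scaled to controls: 0 for no effect and ±100 for the full control effect; compound concentration not given in the record; the text of the record puts the active cut at -80%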
# Target sequence (Q9GZU1 whole entry, looked up): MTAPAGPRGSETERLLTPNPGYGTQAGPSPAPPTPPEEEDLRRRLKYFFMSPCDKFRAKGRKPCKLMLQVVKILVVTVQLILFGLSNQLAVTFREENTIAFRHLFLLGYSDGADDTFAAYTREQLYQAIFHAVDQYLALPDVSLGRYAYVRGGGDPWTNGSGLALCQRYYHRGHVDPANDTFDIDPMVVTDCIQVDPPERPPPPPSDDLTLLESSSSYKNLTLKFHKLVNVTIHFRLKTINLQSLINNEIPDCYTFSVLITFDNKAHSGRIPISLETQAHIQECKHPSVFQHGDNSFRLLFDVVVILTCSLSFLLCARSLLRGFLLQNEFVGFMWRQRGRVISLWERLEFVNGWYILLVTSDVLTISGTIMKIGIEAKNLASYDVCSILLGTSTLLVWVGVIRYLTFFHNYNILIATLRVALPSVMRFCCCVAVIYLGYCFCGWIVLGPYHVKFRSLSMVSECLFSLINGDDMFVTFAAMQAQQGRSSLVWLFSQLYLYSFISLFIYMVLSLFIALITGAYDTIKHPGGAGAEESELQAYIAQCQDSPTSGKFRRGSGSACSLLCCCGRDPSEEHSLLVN
#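 TRPML1-DL cells, Tet-induced overnight (~16 h, 37 °C) at 1,500 cells/well, were loaded with Ca8 no-wash dye plus quencher for 45-90 min at room temperature. Compounds were pinned during FDSS kinetic reading; agonist 54-4 at EC80 (4 uM final) then added.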
# TRPML1 ag: human mucolipin-1 channel agonism; Q9GZU1; TRPML1-expressing cells, Ca2+ dye fluorescence, FDSS; host cell line not named in the record; reference of the full effect not given here; activation, % (no concentration beside the values); 410,000 tested, 0.12% active; AID 624414; in the data active = activation above about 50%; inconclusive = about 30% to 50%; inactive = below about 30%; also: 0% is about no effect; the text of the record puts the active cut at 80%
#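 Agonist activity was taken from a 110 s kinetic Ca2+ dye read on the FDSS after pinning compounds onto TRPML1-DL cells. The cells were seeded at 1,500/well with Tet inducer, incubated about 16 h, then dye-loaded at room temperature.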
# CtBP-E1A blk: CtBP/E1A binding inhibition; AlphaScreen GST-E1A/His-CtBP binding, 1536-well; active compounds read low; control for the full effect not named in the record; activity change, % (no concentration beside the values); 340,000 tested, 0.49% active; AID 651724; in the data active means activity change below about -65%; inconclusive means about -30% to -65%; inactive means above about -30%; also: % is scaled to controls: 0 for no effect and ±100 for the full control effect
#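 AlphaScreen with 125 nM GST-E1A and 125 nM His-CtBP (5X stocks) in Tris pH 8.0, 300 mM NaCl, BSA, Tween 20, TCEP. Compounds preincubated 2 h at 37 deg C, then glutathione donor/nickel acceptor beads added for 1 h at 37 deg C in dark.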
# PINK1 expr mod: modulators of PINK1 expression. 410,000 tested, 0.2% active. Potency, µM (series often up to 76.6 µM), for inactives: top-dose activation (PINK1 increase), actives largely listed as activators. PINK1 immunofluorescence, high-content cytometry, 24 h; active = well fitted activation curve with a large enough effect; inconclusive = small, poorly fitted or top-dose-only effect; inactive = flat fitted curve, though single readings scatter; cell line not stated here;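 also: potency is read from the fitted curve at half-maximal effect; % of control where 0% means no effect; nearly all actives have a fitted effect of over 65% in size; a mitochondrial uncoupler was the plate control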
#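 Stable cell line, 250 cells/well, 12 h attachment; compounds pinned at 5 concentrations, 24 h; CCCP control. Fixed with nuclear dye, primary antibodies 12 h at 10 degrees C, secondary plus cell stain; laser-scanning cytometer read.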
# Numbers without * were called inactive; ? = inconclusive; nt = no result given; & = joins results of further samples; [ ] = another dose, or the depositor's remark.
Structure	D2 ag	Six1-Eya2 blk	TRPML1 blocker	TRPML1 ag	CtBP-E1A blk	PINK1 expr mod
CCOc1ncccc1C(=O)OCc1ccc(C(=O)OC)cc1	3.2	10	2	4.2	1	13%
CCN1CCN(C(=O)c2nn(C)c3c2CS(=O)(=O)c2ccccc2-3)CC1	-1.3	5	-2	-0.4	2	-1.8%
CCCOc1ccc(N/C=C/C(=O)c2ccc(OC)c(OC)c2)cc1	3.2	-7	-13	0.7	-2	14%
Cc1ccc(CNC(=O)C2CCN(S(=O)(=O)c3ccc(F)cc3)CC2)cc1	nt	nt	39	-0.9	nt	-0.3%
Cc1csc(NC(=O)c2nc3nc(C)cc(C)n3n2)n1	-2.7	0	8	-0.3	-7	-1.7%
CCCc1c(C)c2c(C)[nH]nc2oc1=O	-0.8	-10	4	0.1	-5	-0.4%
O=C(Nc1ccc(C(=O)N2CCCCC2)cc1)c1ccc([N+](=O)[O-])cc1	-1.8	4	0	-0.4	8	2.7%
O=c1c2c3nc4ccccc4nc3n(CC3CCCO3)c2ncn1CCc1ccccc1 (stereo not drawn)	-2.6	-6	8	-1.0	4	4.4%
O=C1CN(C(=O)COc2ccc(Cl)c(Cl)c2)c2ccccc2N1	-8.0	0	11	-0.1	0	2.3%
CCNS(=O)(=O)c1cccc(C(=O)c2c(C)cc3ccccn23)c1	-1.4	-11	30	0.0	-10	0.9%
O=C(NC1(C(F)(F)F)NC(=O)N(Cc2ccccc2)C1=O)c1cccnc1 (stereo not drawn)	0.4	4	1	-1.1	3	0.6%
CC(=O)Nc1ccc(OC(=O)c2ccco2)cc1	0.7	8	-14	0.5	13	?
CC(C)NC(=O)c1[nH]nc2c1CCc1ccccc1-2	-6.2	-5	nt	nt	0	0.9%
COc1cc(C(=O)N2CCN(c3ccc(Nc4ccccc4)nn3)CC2)cc(OC)c1OC	nt	nt	16	2.9	nt	-0.4%
COc1cc(/C=C/C(=O)Nc2ccc(C)cc2)cc(OC)c1OC	1.0	1	8	1.1	-3	9.8%
C[C@@H]1CCCCO[C@H](CN(C)C(=O)Nc2ccc(F)cc2)[C@@H](C)CN([C@H](C)CO)C(=O)c2cc(NC(=O)c3ccccc3)ccc2O1	0.8	9	-7	-0.6	-2	-0.6%
O=C1CCN2C=Nc3cccc4ccc1c2c34	7.2	-2	-5	?	-6	-0.9%
O=c1[nH]nnc2sc3c(c12)CCCC3	-2.3	-4	18	1.4	7	-2.6%
CC1CCC(C(=O)NC(C(=O)NCCCN2CCOCC2)C(C)C)CC1 (stereo not drawn)	-1.3	0	1	-0.7	1	4.8%[38.3 µM]
COc1ccc(/C=N\Nc2ccc([N+](=O)[O-])cc2)c(C(=O)O)c1OC	-7.2	-2	-6	1.0	1	3.0%
CC1CCN(Cc2c(C#N)c3ccccc3n2C)CC1	-3.6	0	1	-0.3	-2	0.2%
CCC1CN(C(=O)N2CCC(C(=O)N3CCN(c4ccc(F)cc4)CC3)CC2)c2ccccc2O1 (stereo not drawn)	nt	nt	-3	2.4	nt	-1.4%
CCC(=O)NC(=S)Nc1cccc(NC(=O)c2ccccc2C)c1	2.0	5	-4	0.4	-1	-4.1%
C=CCN1C(=O)CN=C1Nc1cc(C)ccc1C	-3.8	4	9	0.2	6	2.4%
CCCCCCCCCCCCCCCC[n+]1ccccc1	nt	34&2	-10&8	5.4&2.1&-0.1	24&-4	-1.2%&-2.3%&2.7%
Cc1ccc(N2CCN(C(=O)N3CCOCC3)CC2)cc1C	0.0	0	15	0.3	-6	7.4%
CCc1cccc(C)c1NC(=O)C1CCCN(S(=O)(=O)c2cccc3nsnc23)C1 (stereo not drawn)	nt	nt	-22	-1.0	nt	1.1%
Cc1ccc2c(c1)c1ncnc(N3CCOCC3)c1n2C	4.4	5	19	-1.5	4	0.1%
CCOC(=O)c1cc(NC(=O)Nc2ccccc2OC)c(C)nc1C	-3.7	-8	-15	-0.2	-7	6.5%
COc1cccc(NC(=O)CN(C)C(=O)c2cc(CN3C(=O)c4ccccc4C3=O)ccc2OC)c1	0.3	-1	-7	0.3	-1	-1.6%

# Of the compounds above, 3 have an NH in an aromatic ring:
Structure	D2 ag	Six1-Eya2 blk	TRPML1 blocker	TRPML1 ag	CtBP-E1A blk	PINK1 expr mod
CCCc1c(C)c2c(C)[nH]nc2oc1=O	-0.8	-10	4	0.1	-5	-0.4%
CC(C)NC(=O)c1[nH]nc2c1CCc1ccccc1-2	-6.2	-5	nt	nt	0	0.9%
O=c1[nH]nnc2sc3c(c12)CCCC3	-2.3	-4	18	1.4	7	-2.6%

# Carrying on:
Structure	D2 ag	Six1-Eya2 blk	TRPML1 blocker	TRPML1 ag	CtBP-E1A blk	PINK1 expr mod
CCC(C)N1C(=O)c2ccccc2C1C(=O)NC1CCCCCC1 (stereo not drawn)	-2.1	-6	-9	1.2	-12	0.9%
Cc1cc(=O)[nH]c(N/N=C/CCc2ccccc2)n1	-4.9	5	-1	0.1	2	-2.7%
CC1CN(C(=O)c2cccc(Oc3ccccc3)c2)CC(C)O1 (stereo not drawn)	0.1	-1	29	0.0	-4	0.3%
CC1CCCC(C)N1C(=O)COc1ccc([N+](=O)[O-])cc1Cl (stereo not drawn)	-8.3	1	-10	0.8	-4	5.2%
Cc1ccc(NC(=O)CSc2ncn[nH]2)c([N+](=O)[O-])c1	2.8	-3	-14	-0.1	-1	1.1%
Cc1ccc(C(=O)Nn2cnc3ccccc3c2=O)cc1C	-9.1	-3	nt	nt	-4	1.6%
COc1ccc(-c2nc(CSCC(=O)N3CCc4ccccc4C3)c(C)o2)cc1OC	-7.1	-7	-9	1.1	-4	2.1%
Cc1cnc(C(=O)NC(C)CCc2ccccc2)cn1 (stereo not drawn)	3.3	-28	2	0.2	3	0.9%
O=C(O)C1=C[C@H](c2csc3ccccc23)C[C@H](OCCCCO)O1	-0.3	8	-6	-0.9	7	5.1%
Cc1cc2oc(C(=O)N(Cc3ccccc3)c3ccccn3)cc(=O)c2cc1Cl	-2.5	5	10	3.5	4	0.4%
O=C(CN1CCN(CCN2C(=O)c3cccc4cccc(c34)C2=O)CC1)c1ccc(F)cc1	-3.1	-8	-11	-0.8	-8	15%[38.3 µM]
CCCN1C(=O)C(=O)N(CC(=O)N2c3ccccc3NC(=O)CC2C)C1=O (stereo not drawn)	-2.2	-4	-4	-0.8	1	-0.2%
COc1cccc(-c2cc(C(=O)NCc3ccc(F)cc3)no2)c1	nt	nt	5	0.3	nt	2.1%
COc1ccccc1CNc1ncnc2c1cnn2-c1ccc(C)cc1	nt	nt	17	0.6	nt	-0.2%
Cc1cc(C)cc(-n2ccn(CC(=O)Nc3ccccc3C(F)(F)F)c(=O)c2=O)c1	nt	nt	19	-0.6	nt	0.6%
COc1ccccc1NC(=O)CSc1nnc(C)n1CCc1ccccc1	-0.8	2	7	-0.9	6	1.7%
Cc1ccc(S(=O)(=O)N2CCCCC2)cc1NC(=O)c1ccccc1Cl	-2.4	5	10	1.1	nt	0.2%
COc1ccc(Cn2c(SCc3ccc(C(=O)NC(C)c4ccccc4)cc3)nc3cccnc32)cc1 (stereo not drawn)	nt	nt	20	-0.2	nt	5.2%
CCCOC(=O)c1ccc(NC(=O)CN(C)Cc2cccs2)cc1	-0.2	10	-16	1.2	10	0.8%
Cc1ccc(N)c([N+](=O)[O-])c1	3.5	2	-8	-0.7	1	-0.1%
O=C(COC(=O)c1cccs1)c1ccc2c(c1)OCCO2	-1.0	8	-3	0.6	14	0.6%[38.3 µM]
CCC(=O)NC(=S)Nc1ccccc1C(=O)OC	-0.9	3	8	0.5	11	-1.4%
Cc1ccc(-c2nc3c(=O)n(C)c4ccccc4c3o2)cc1	-4.1	-1	48	0.2	2	3.9%
CC12CCC(C(=O)N(c3nccs3)C1=O)C2(C)C (stereo not drawn)	-0.4	9	-2	-0.3	2	-0.2%
CN1CCN(S(=O)(=O)c2ccc(SCCOc3ccccc3)nc2)CC1	-3.5	-5	27	0.9	-2	1.7%
C=CCNC(=O)c1ccc(-c2cccc([N+](=O)[O-])c2)o1	-2.4	-12	-12	-0.5	-3	?
CCN(CC)C(=O)/C(=C\c1cccc([N+](=O)[O-])c1)NC(=O)c1ccco1	-0.4	6	-14	-0.6	-7	0.6%
CN1/C(=C/C(=S)NC(=O)C2(C)CC2(Cl)Cl)C(C)(C)c2ccccc21 (stereo not drawn)	-4.3	-66*	-9	3.5	-72*	3.1%
CCC(C)[C@H]1CNC(=O)C(=O)N1CCCCC1CCCCC1 (stereo partly drawn)	nt	26	nt	0.6	-25	-0.6%
C=CCN1C(=O)C(O)=C(C(C)=O)C1c1ccccc1F (stereo not drawn)	-1.6	5	-4	-0.8	1	1.9%
Cc1ccc(-c2csc(-c3ccncc3)n2)cc1	2.4	5	24	-0.3	14	-0.4%
COc1ccccc1NC(=O)N1CCCC1C(=O)NCc1cccs1 (stereo not drawn)	-4.6	3	-13	0.4	0	6.6%
CC1CCCC(C)N1S(=O)(=O)c1ccc(S(=O)(=O)NCc2ccccc2)cc1 (stereo not drawn)	0.7	3	1	0.5	2	16%[38.3 µM]
Cc1cc2c(cc1NS(=O)(=O)c1ccc(Br)cc1)n(C)c(=O)c(=O)n2C	nt	nt	-1	2.0	nt	2.8%
O=C(CSCn1nnc2c(=O)[nH]c(Cc3ccc(F)cc3)nc21)Nc1cccc(C(F)(F)F)c1	nt	nt	-6	-0.2	nt	0.4%
S=C(Cc1ccc(Cl)cc1)N1CCOCC1	-3.3	10	-19	0.3	0	-1.2%
COc1cccc(C(=O)NCC(c2ccc3c(c2)OCO3)N2CCN(c3ccc(F)cc3)CC2)c1 (stereo not drawn)	-5.3	?	-1	0.4	-5	-0.1%
O=C(CCN1C(=O)COc2ccccc21)NCCC1=CCCCC1	-1.2	5	-7	0.7	-2	-4.4%[38.3 µM]
Cc1ccc(CNC(=O)C(N=C2NS(=O)(=O)c3ccccc32)C(C)C)cc1 (stereo not drawn)	2.0	3	-20	-0.4	6	0.4%
CCOc1nc(NC(C)C)nc(NC(C)C)n1	-1.7	3	1	0.5	4	-2.0%
CCCc1cc(=O)[nH]c(N2CCN(Cc3ccc4c(c3)OCO4)CC2)n1	8.2	-10	9	0.0	-22	1.7%
Cc1ccc(C(=O)Nc2ccc(O)c(C(=O)O)c2)o1	2.0	0	27	0.5	2	-0.3%
COc1ccc(CCN2C(=O)CN(C3CCCCCC3)C(=O)C2c2ccc(Cl)cc2)cc1OC (stereo not drawn)	nt	nt	-10	1.3	nt	3.1%
